CSC inhib: blocks cancer stem cells. inhibition, % at 7.5 µM. 300,000 tested, 1.1% active. cancer stem cell-like cells viability, luminescence. AID 2717;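 active = mean at 75% or more and at least half the replicates too; inconclusive = mean and replicates disagree; tested in HMLE shEcad cells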;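 note: 0% = median of negative and 100% = median of positive control wells; the first replicate is given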
Env fusion inh: blocks HIV Env-driven cell-cell fusion; inhibition, % at 12.3 µM; HeLa-JRFL Env/CEM21 cell fusion, luciferase; 360,000 tested, 1.1% active;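 active = mean replicate inhibition score of at least 50 and every replicate individually at or above 50; inconclusive = only one of the two criteria met; inactive = mean below 50 and not all replicates reaching 50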;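 note: 0% = plate neutral controls and 100% = maraviroc near 300 nM; one replicate is shown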
Rce1 inhib: blocks yeast Ras-converting enzyme | AID 2563 | 290,000 tested, 0.27% active | Q03530 | calls only | yeast membranes, quenched prenylated peptide cleavage fluorescence;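 active = fall in fluorescence gain of 50% or more versus controls, with final raw signal at or below 3038400; inconclusive = same 50% fall but final raw signal above 3038400; inactive = fall in fluorescence gain under 50%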;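 note: plate controls were neutral control wells for no effect and wells lacking membranes for full effect; tested at 10 µM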
Target sequence (Q03530 whole entry, looked up): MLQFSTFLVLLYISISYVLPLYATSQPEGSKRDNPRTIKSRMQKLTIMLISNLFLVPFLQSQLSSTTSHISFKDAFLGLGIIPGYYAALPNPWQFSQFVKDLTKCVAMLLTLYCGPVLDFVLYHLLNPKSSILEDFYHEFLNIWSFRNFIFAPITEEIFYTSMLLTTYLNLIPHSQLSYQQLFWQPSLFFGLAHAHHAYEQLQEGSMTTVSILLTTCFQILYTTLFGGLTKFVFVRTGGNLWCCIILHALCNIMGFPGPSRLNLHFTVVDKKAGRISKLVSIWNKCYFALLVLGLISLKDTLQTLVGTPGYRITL
PABP FP inh: PABP-poly(A) binding inhibition | inhibition, % at 35 µM | PABP-poly(A) RNA binding, fluorescence polarization | P11940 | AID 2014 | 290,000 tested, 1% active;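 active = 50% or more with normal probe brightness, or confirmed in later tests; inconclusive = above 50% with abnormal brightness, or retests that disagree; inactive = below 50% or failed in later tests; about a fifth of its hits are not listed in these tables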;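 note: calls also rest on retests at 20 µM and on dose response follow-up; controls were probe without protein and protein plus probe with vehicle; some compounds called inactive have numbers as strong as hits; many hits fall short of the cut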
eIF4H inh: inhibitors of RNA binding by human eIF4H; Q15056; eIF4H fluorescence polarization binding assay; inhibition, % at 35 µM; 290,000 tested, 0.94% active; AID 2012;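 active = 50% or more with normal probe brightness, or confirmed in later tests; inconclusive = above 50% with abnormal brightness, or retests that disagree; inactive = below 50% or failed in later tests; about a fifth of its hits are not listed in these tables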;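 note: calls also rest on retests at 20 µM and on dose response follow-up; 0% = protein and probe with vehicle and 100% = probe without protein; strong numbers were not always called active; many hits fall short of the cut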
MT1-MMP act inh: MT1-MMP (human) activation inhibition; P50281; HT1080 RFP-PRO-GFP cells, GFP/RFP ratio fluorescence, overnight; percent of plate control window, DMSO zero; GFP/RFP ratio change, % at 20 µM; 360,000 tested, 0.061% active;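 active = GFP/RFP ratio change of at least 30% with cell ATP level not reduced by more than half and red fluorescence within 50% of control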; note: strong numbers were not always called active
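Assay system: HT1080 cells carrying an RFP-PRO-GFP reporter | Dosing: Single dose of 20 µM compound, 1% DMSO final | Incubation: Cells overnight before dosing, compound overnight, 37 °C, 5% CO2 | Evaluation: GFP/RFP fluorescence ratio | Control set: DMSO and RFP-L50D-GFP cell wells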
UUG fidelity: yeast start codon fidelity modulation. 350,000 tested, 0.13% active. activity score, % at 18.7 µM. S. cerevisiae UUG-firefly luciferase reporter, luminescence/redox ratio;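 active = replicate mean at a twofold rise or more, about +100% in these data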;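 note: firefly luciferase made from a UUG start codon reports start codon fidelity; reporter light over untreated wells divided by growth signal over untreated wells; some hits fall short of that in this replicate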
eIF4H inh retest: second read-out of eIF4H inh, no call of its own (marks repeat the call); inhibition, %; compound at 20 µM; confirmation average;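 mean of two retest wells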
PABP FP inh retest: second read-out of PABP FP inh, no call of its own (marks repeat the call); inhibition, %; compound at 20 µM; confirmation repeats;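 mean of two retest wells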
MT1-MMP act inh RFP: further read-out of MT1-MMP act inh, marked with its call; RFP signal change, %; measured here: RFP expression control read;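 0 = vehicle wells; hits needed this value within 50% of zero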
Numbers without * were called inactive; i = inactive; ? = inconclusive; . = not tested or not shown.

SMILES | CSC inhib | Env fusion inh | Rce1 inhib | PABP FP inh | eIF4H inh | MT1-MMP act inh | MT1-MMP act inh RFP | UUG fidelity | others
COc1ccc(CNC(=O)c2ccc[nH]2)cc1 | -6 | -2 | i | 11 | -8 | -2 | -1 | -1
COc1ccc(N2CC(C(=O)N3CCOCC3)CC2=O)cc1 (centres undefined) | -25 | -6 | i | 10 | -18 | 1 | 5 | -10
COc1cccc(CSc2nc3ccccc3[nH]2)c1 | 11 | -43 | i | -12 | 1 | 6 | 0 | .
O=C(NC1CCCC1)c1cnc2n(c1=O)CCS2 | -7 | -128 | i | 7 | -8 | -3 | -6 | -10
O=C(C1CCCCC1)N1C[C@H](O)[C@@H](n2cc(C3CC3)nn2)C[C@@H]1c1ccccc1 | . | -5 | . | . | . | 0 | -2 | -22
Cc1ccnc(N2CCC(C(=O)NNC(=O)c3ccccc3C)CC2)n1 | 3 | . | i | 10 | -6 | 16 | 4 | -8
CCCCOC(=O)CCc1c(C)[nH]c(=S)[nH]c1=O | 2 | . | i | -6 | -2 | -3 | -4 | -7
COCCNc1nc2nonc2nc1N1CCC(N(C)C)C1 (centres undefined) | -5 | -25 | i | -2 | 5 | 2 | 4 | -17
COc1ccc(-n2nc([N+](=O)[O-])c(=NCCCN3CCCC3=O)n2O)cc1 | -4 | -14 | i | -3 | 0 | -3 | -2 | 6
COCCn1cnnc1SCC(=O)Nc1ccc(N2CCCCC2)cc1 | -4 | . | . | . | . | 0 | 3 | -10
CCN(CC(=O)Nc1ccc(NC(C)=O)cc1)C(=O)c1ccc(=O)[nH]c1 | -8 | -34 | i | -8 | -7 | 1 | 3 | -18
CCOc1ccc(C(=O)Nc2cccc(SC)c2)cc1 | -10 | -100 | i | 0 | 2 | 9 | -1 | 2
O=C(NCC(=O)N(CCN1CCOCC1)C(C(=O)NC1CCCC1)c1cccs1)c1ccco1 (centres undefined) | 1 | . | i | 6 | -7 | -5 | 4 | 10
Cc1ccc(C(=O)N/C(=C\c2cn(C)c3ccccc23)C(=O)OCCN(C)C)cc1 | 1 | -2 | i | 8 | 0 | 0 | 4 | .
Cc1cc(F)ccc1-c1cc(C(=O)Nc2ccccc2)[nH]n1 | . | -120 | . | . | . | -3 | -3 | -19
O=C(Nc1nnc(C(F)(F)F)s1)c1ccc(Br)s1 | 70 | 16 | i | -7 | -6 | -3 | -33 | -25
CC(C)C(Sc1nc(-c2ccccc2)cc(-c2ccccc2)c1C#N)C(=O)O (centres undefined) | 48 | 34 | i | 5 | -4 | 6 | 1 | .
CSCCC(NC(=O)c1ccc(Cl)cc1)C(=O)OCC(C)=O (centres undefined) | 0 | -1 | . | 4 | 4 | -2 | 3 | .
N/C(CS(=O)(=O)c1ccc(F)cc1)=N\O | -6 | 6 | i | 6 | -9 | 0 | 2 | -8
COc1cccc(/C=C2\SC(=S)N(C(Cc3ccccc3)C(=O)O)C2=O)c1 (centres undefined) | 0 | 6 | i | 2 | 6 | -2 | 0 | .
C=CCOc1c(CCC)cc(CCC)cc1C(N)=O | 8 | 3 | i | -6 | 1 | -2 | 0 | -14
Cc1cc(C)c(NC(=O)COC(=O)c2cc([N+](=O)[O-])ccc2N2CCOCC2)c(C)c1 | 5 | -2 | i | 11 | -5 | . | . | -30
Cc1noc(C)c1S(=O)(=O)N1CCCC(C(=O)NCCc2ccccc2)C1 (centres undefined) | . | . | . | 3 | 5 | 0 | 1 | -12
Cn1nc(C(C)(C)C)cc1NC(=O)C1(C)CCN1C(=O)c1ccccc1CCc1ccccc1 (centres undefined) | . | 20 | . | . | . | 1 | 0 | 16
CC(C)C1Cc2[nH]c(=S)[nH]c(=O)c2C(c2ccc(Cl)cc2)O1 (centres undefined) | . | 22 | . | . | . | 3 | 0 | -8

Brought forward from above: 7 compounds, then new ones.
SMILES | CSC inhib | Env fusion inh | Rce1 inhib | PABP FP inh | eIF4H inh | MT1-MMP act inh | MT1-MMP act inh RFP | UUG fidelity | others
N/C(CS(=O)(=O)c1ccc(F)cc1)=N\O | -6 | 6 | i | 6 | -9 | 0 | 2 | -8
COc1cccc(/C=C2\SC(=S)N(C(Cc3ccccc3)C(=O)O)C2=O)c1 (centres undefined) | 0 | 6 | i | 2 | 6 | -2 | 0 | .
C=CCOc1c(CCC)cc(CCC)cc1C(N)=O | 8 | 3 | i | -6 | 1 | -2 | 0 | -14
Cc1cc(C)c(NC(=O)COC(=O)c2cc([N+](=O)[O-])ccc2N2CCOCC2)c(C)c1 | 5 | -2 | i | 11 | -5 | . | . | -30
Cc1noc(C)c1S(=O)(=O)N1CCCC(C(=O)NCCc2ccccc2)C1 (centres undefined) | . | . | . | 3 | 5 | 0 | 1 | -12
Cn1nc(C(C)(C)C)cc1NC(=O)C1(C)CCN1C(=O)c1ccccc1CCc1ccccc1 (centres undefined) | . | 20 | . | . | . | 1 | 0 | 16
CC(C)C1Cc2[nH]c(=S)[nH]c(=O)c2C(c2ccc(Cl)cc2)O1 (centres undefined) | . | 22 | . | . | . | 3 | 0 | -8
COc1ccc(NC(=O)CSc2nnc(-c3cccs3)n2N)cc1S(N)(=O)=O | 8 | ? | . | . | . | -2 | 3 | -12
Cc1cccc(-c2noc(CCCC(=O)NC3CCCCC3)n2)c1 | -17 | -3 | i | -4 | 2 | -3 | -2 | 16
COc1ccccc1NC(=O)COC(=O)c1cnc(C)cn1 | 6 | -9 | i | 4 | 6 | 3 | 4 | 6
O=C(CNC(=O)c1ccc(F)cc1)Nc1ccccc1C(F)(F)F | -11 | -8 | i | 2 | -9 | -1 | 2 | .
CC1CN(c2nc(Nc3ccccc3F)nc(N)c2[N+](=O)[O-])CC(C)O1 (centres undefined) | -15 | 8 | i | 6 | 2 | 0 | -6 | -12
Cc1ccc(N2N=C(c3ccc(F)cc3)CC2c2ccco2)cc1 (centres undefined) | 25 | 10 | i | 1 | 3 | -1 | -2 | .
COc1ccc(OC)c(C2NC(=O)NC(C)=C2C(=O)Nc2ccc(C)cc2)c1 (centres undefined) | -3 | -53 | i | 5 | 0 | -2 | 2 | -4
O=C(Nc1ccc(C(=O)NC2CCCCC2)cc1)c1cccnc1 | 0 | -6 | i | -1 | 4 | -10 | -2 | 1
Cc1cccc(CN2CCCC(C(=O)Nc3ccccc3Oc3cccnc3)C2)c1 (centres undefined) | -16 | 1 | i | 1 | 1 | -2 | -3 | -18
Cn1c(SCC(=O)NC2CC2)nnc1-c1ccco1 | 3 | 26 | . | -4 | 2 | -4 | 6 | -24
COCc1cc(=O)n2[nH]c(N)nc2n1 | -5 | -7 | i | 14 | 6 | 2 | 5 | -11
Cc1cc(C(F)F)n2ncc(C(=O)NCc3ccccc3)c2n1 | -18 | -47 | i | 3 | -3 | -5 | 2 | -18
COC(=O)c1ccc(NC(=O)CN2CCN(CC#N)CC2)cc1 | -5 | -52 | i | 11 | 8 | 2 | 4 | -12
COc1cc(C(=O)n2nc(C)cc2C)cc(OC)c1OC | -13 | -15 | i | 8 | -9 | 0 | 1 | -4
COc1ccc(-n2c(SCC#N)nnc2-c2cccnc2)cc1 | -3 | -10 | i | 1 | -3 | 4 | 4 | -21
CSc1ccc(C(O)c2ncc(-c3cccc(OCc4ccccc4)c3)[nH]2)cc1 (centres undefined) | . | 16 | . | . | . | -1 | -5 | -19
CCn1cc(S(=O)(=O)c2ccc(Cl)cc2)c(=O)c2cc(OC)ccc21 | -23 | -2 | i | 0 | 0 | -2 | 1 | 1
CN(CCNC(=O)C1CCC(=O)N(Cc2ccc(Cl)cc2)C1)CCc1ccccc1 (centres undefined) | 5 | -32 | i | 8 | -1 | 3 | 2 | -2
O=C(COC(=O)Cc1cccc(C(F)(F)F)c1)Nc1ccc2[nH]c(=O)[nH]c2c1 | -9 | 5 | i | . | . | 4 | 4 | .
COc1ccc(CCNc2ncnc3[nH]ncc23)cc1OC | 15 | . | i | 2 | -3 | 6 | -7 | -9
c1csc(C(c2nnnn2C2CCCC2)N2CCOCC2)c1 (centres undefined) | 1 | . | i | -5 | 2 | -1 | 2 | -11
O=C(c1cccc(Br)c1)N1CCCC1 | -13 | 13 | i | -2 | -6 | 0 | 5 | -6
CCOC(=O)C(CCC#N)(CCC#N)C(=O)OCC | -5 | -60 | i | 9 | 13 | -10 | -1 | -6
CC(C)C(=O)Nc1cccc(COc2ccc(CN(CCc3ccccc3)C(=O)OC(C)(C)C)cc2)c1 | . | 42 | . | . | . | -6 | -22 | -9
Nc1ncnc(Oc2ccccc2F)c1[N+](=O)[O-] | -10 | 24 | i | 9 | -6 | -1 | -4 | -16
SMILES | CSC inhib | Env fusion inh | Rce1 inhib | PABP FP inh | eIF4H inh | MT1-MMP act inh | MT1-MMP act inh RFP | UUG fidelity | others
COC(=O)c1c(NC(=O)CSc2nnc3ccccn23)sc2c1CCC2 | -10 | . | i | 9 | -1 | -2 | -8 | -17
CC(C)OCCCNc1nc(Cl)nc2c1cnn2C | . | -13 | . | . | . | 0 | -1 | -3
CC(C)c1ccc(Nc2nc(Cl)nc(NCc3ccco3)n2)cc1 | -2 | -11 | i | 3 | -8 | -7 | -11 | -1
O=C(Nc1cccc(S(=O)(=O)N2CCCC2)c1)[C@H]1C[C@H](O)[C@@H](CO)O1 | . | 6 | . | . | . | 0 | 4 | 16
O=C(CC1SC(=O)NC1=O)Nc1ccc(Cl)cc1 (centres undefined) | 11 | -2 | i | 0 | 4 | 3 | 6 | 1
COc1ccccc1C1CCN(Cc2ccccc2Cl)CC1 | -6 | 6 | i | -2 | -5 | -3 | 0 | 0
N#Cc1c(-c2ccc(F)cc2)c2c([nH]c1=O)-c1ccccc1OC2 | -8 | 4 | i | -3 | -8 | 5 | -5 | 2
Cc1cccc(Nc2ccccc2)c1 | 8 | . | i | -4 | -8 | 2 | 3 | 3
CC(C)(C)OC(=O)N1CCOCCOCCNCCOCCOCC1 | -14 | . | i | -10 | -8 | -4 | 3 | .
CCOc1ccc(C2=Nc3ccccc3C(c3ccc(N4CCOCC4)cc3)=NN2)cc1 | 2 | -30 | i | 6 | 6 | 5 | -2 | -3
CCn1c(C(Cc2ccccc2)NC(=O)COC)nc2ccccc21 (centres undefined) | -6 | -24 | i | -7 | -11 | -3 | 2 | -13
Cc1ccc(Sc2ncccc2N)cc1 | -1 | 1 | i | . | . | 0 | 4 | -23
CCOc1ccc(/C=C(/C#N)c2nnc(N3CCOCC3)n2-c2ccccc2)cc1OC | . | -24 | . | . | . | -3 | -3 | 5
Cc1cc(C)cc(C(=O)Nc2ccncc2)c1 | 18 | -4 | i | 7 | 6 | 2 | -2 | 9
O=[N+]([O-])c1cc(/C=N/Nc2nc3ccccc3[nH]2)c(O)cc1O | 64 | 31 | i | 8.4* | 80* | . | . | . | eIF4H inh retest=110*;PABP FP inh retest=83*
Cc1ccc(CCNC(=O)CNS(=O)(=O)c2ccc3nc(C)sc3c2)cc1 | -15 | -23 | i | 0 | -3 | 3 | 1 | -22
Cc1onc(-c2ccccc2Cl)c1C(=O)N1CCN(c2ccc(F)cc2)CC1 | -8 | 7 | i | -1 | -2 | -1 | -3 | -20

High-throughput results deposited in PubChem by several laboratories.

Only part of the results is shown; the hit share may differ from the screen's.
